# Mtb H37Rv: M. tuberculosis H37Rv growth inhibitors, H37Rv strain (AID 1626). M. tuberculosis H37Rv growth inhibition; higher % means a stronger effect. inhibition, % at 10 µM; hits with a dose series show IC50 in µM. 0.95% of 220,000 active;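 active = confirmed in a dose series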;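 also: bacteria incubated seven days before Alamar blue readout; 0% = bacteria only wells and 100% = bacteria with antibiotic wells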
# Arbovirus inh: antivirals against arbovirus infection, primary screen, cell-based, full library, 10K replicate subset; inhibition, % at 10 µM; AID 1251, 2008; 0.37% of 200,000 active; arbovirus infection cell-based antiviral screen;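 active = inhibition from about 30%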;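 also: bluetongue infection of BSR cells; cell survival read as ATP light after 72 h; 0% = infected wells without compound and 100% = uninfected wells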
# RecA intein inh: Mtb RecA intein splicing inhibitors, primary screen, biochemical, fluorescence, HTS; cell-free RecA intein splicing; 0.75% of 290,000 active; inhibition, %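 (about 9 µM by stock and volumes)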; in the data active = inhibition above about 30%;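 also: 0% = vehicle wells and 100% = reference inhibitor control wells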
# Target sequence (P9WHJ3 whole entry, looked up): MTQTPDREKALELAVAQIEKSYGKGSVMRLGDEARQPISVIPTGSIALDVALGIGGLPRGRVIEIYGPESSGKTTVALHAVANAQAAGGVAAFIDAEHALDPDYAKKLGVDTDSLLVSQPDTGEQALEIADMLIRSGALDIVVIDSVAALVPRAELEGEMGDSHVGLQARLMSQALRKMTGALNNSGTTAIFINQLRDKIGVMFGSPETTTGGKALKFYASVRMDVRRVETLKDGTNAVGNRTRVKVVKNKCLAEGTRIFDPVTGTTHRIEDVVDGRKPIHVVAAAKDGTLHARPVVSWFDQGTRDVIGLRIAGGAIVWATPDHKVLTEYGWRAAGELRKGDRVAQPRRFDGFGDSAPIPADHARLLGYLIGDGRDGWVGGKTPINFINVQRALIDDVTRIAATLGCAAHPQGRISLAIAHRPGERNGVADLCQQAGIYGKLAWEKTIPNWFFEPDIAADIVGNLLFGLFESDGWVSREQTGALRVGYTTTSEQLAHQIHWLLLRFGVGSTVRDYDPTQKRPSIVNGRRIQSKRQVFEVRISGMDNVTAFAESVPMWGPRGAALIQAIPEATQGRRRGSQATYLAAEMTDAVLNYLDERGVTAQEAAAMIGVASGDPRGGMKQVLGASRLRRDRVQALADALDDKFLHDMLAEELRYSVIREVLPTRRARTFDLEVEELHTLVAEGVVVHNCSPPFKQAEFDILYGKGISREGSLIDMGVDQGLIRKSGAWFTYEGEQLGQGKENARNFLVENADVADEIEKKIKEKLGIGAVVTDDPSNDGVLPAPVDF
# YopH inh: YopH tyrosine phosphatase inhibitors, primary screen, biochemical, fluorescence Ex485/Em525 | inhibition, %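 (about 10 µM by stock and volumes)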 | 0.16% of 140,000 active;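 active = inhibition of 50% or more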;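 also: controls were vehicle for no effect and minimum signal wells for full effect; inactives centre near -20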
# Mtb bLac sens: beta-lactam sensitization of Mtb H37Rv, H37Rv | inhibition, % at 25 µM | M. tuberculosis H37Rv growth with meropenem, percent inhibition; hits of this screen are not shown here | 0.27% of 330,000 active;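 active = about 74% or more and at least 40 points above the plate without the antibiotic, then above 30% in a dose series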;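 also: growth measured after seven days incubation then overnight dye step; 0% = bacteria only wells and 100% = bacteria with antibiotic; twin plates without the antibiotic show which effects depend on it; some results filed as inactive read as strong as hits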
# Arbovirus inh repeat: second read-out of Arbovirus inh, no call of its own (marks repeat the call); inhibition, %; measured here: 10K subset replicate screen; many hits read low in the repeat;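 first of two repeat runs on a subset; 0% = infected and 100% = uninfected wells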
# * = called active by the depositor; x = no result given. Only part of the results is shown; count on the stated rates, not on these rows.
SMILES,Mtb H37Rv,Arbovirus inh,RecA intein inh,YopH inh,Mtb bLac sens,others
CN(C)C(CNC(=O)CCc1nc2cc(Cl)ccc2n(Cc2ccccc2)c1=O)c1ccccc1 (configuration not stated),x,x,3.2,x,1.5,
CC(=O)Nc1ccc(Oc2cncc(Cl)c2)nc1,3.3%,x,-1.2,x,-2.9,
CCN(CC)CCCNC(=O)c1cn(CC)c2ccc(S(=O)(=O)N3CCc4ccccc4C3)cc2c1=O,-5.9%,-9.7,x,x,-1.3,
COc1ccc(Cl)cc1NS(=O)(=O)c1c(C)nc2sccn2c1=O,x,x,-2.1,x,-1.9,
O=C(NCc1ccncc1)c1nc(-c2ccc(C(F)(F)F)cc2)no1,7.3%,12.7,2.7,x,-1.0,
Cc1ccccc1NS(=O)(=O)c1ccc(OCC(=O)NCc2ccccn2)cc1,-16.3%,-1.6,-1.0,x,-0.6,
O=c1cc(-c2ccccc2)nc(N2CCN(Cc3ccc4c(c3)OCO4)CC2)[nH]1,89µM*,20.3,x,-35.2,91.8,
OCCOCCn1c(C2CCCN2c2nc(-c3ccc(F)cc3)cs2)nc2cc(Cl)c(Cl)cc21 (configuration not stated),10.0%,x,8.2,x,79.7,
NC(=O)C1CCN(CC(=O)NC(=O)NC2CCCC2)CC1,-0.8%,3.5,-0.5,x,-2.4,
CCOc1cccc2sc(N(CCN(CC)CC)C(=O)c3cccc(N4C(=O)CCC4=O)c3)nc12,x,x,-1.3,x,-4.3,
O=C(CCCN1C(=O)c2ccccc2C1=O)Nc1cccc(S(=O)(=O)NC2=NCCC2)c1,3.2%,2.6,0.1,x,5.3,
O=C(CNC(=O)c1ccco1)Nc1ccc(S(=O)(=O)N2CCCC2)cc1,-5.8%,5.1,3.2,-18.6,7.3,
O=C(CN1C(=O)S/C(=C\c2ccccc2)C1=O)NCCCn1ccnc1,x,x,-1.2,x,4.6,
O=C1C(=O)N(CCO)C(c2ccccc2)/C1=C(\O)c1ccccc1 (configuration not stated),-0.1%,-1.4,x,x,2.3,Arbovirus inh repeat=-0.7
Cc1c(CCC(=O)O)c(=O)oc2cc(OCc3cccc(F)c3)ccc12,x,x,-1.5,x,2.9,
C/C(=N\Nc1nc2ccccc2nc1C)c1ccccc1O,5.3%,x,-0.5,x,99.6,
CCOC(=O)CSc1nc(=O)n2ccc(C)cc2n1,1.9%,-3.8,0.4,x,-3.4,
CSCCC(NC(=O)c1ccccc1Br)C(=O)Nc1ccc(C)cc1 (configuration not stated),2.0%,-10.6,3.2,-30.2,-5.0,
Cc1cc(OCC(=O)NCC(O)c2ccccc2)c2c3c(c(=O)oc2c1)CCCC3 (configuration not stated),x,x,-3.6,x,-1.1,
CCCc1nc2c(c(=O)c3ccccc3n2C)c(=O)n1-c1ccc(F)cc1,8.2%,9.0,0.5,-21.9,-5.5,
Cc1ccccc1NC(=O)C1CCN(c2cnccn2)CC1,-8.3%,9.8,-0.5,3.9,-9.1,
CC1CCC/C(=C(\C#N)c2nc(-c3cc4ccccc4oc3=O)cs2)C1 (configuration not stated),5.0%,7.9,-1.4,-26.7,53.9,
CCOC(=O)N1CCC(Nc2ncnc3c2cnn3-c2ccc(C)cc2C)CC1,5.1%,8.2,0.6,-22.4,-5.3,Arbovirus inh repeat=11.6
Cn1c(NC(=O)c2ccc(Cl)s2)cc(=O)n(C)c1=O,-1.6%,-3.8,1.1,-3.3,-1.9,
NNC(=O)c1cc(O)c(O)c(O)c1,2.4%,-4.1,-5.1,x,-2.7,
SMILES,Mtb H37Rv,Arbovirus inh,RecA intein inh,YopH inh,Mtb bLac sens,others
COc1ccc(N2C(=NC(=O)CCCc3ccccc3)SC3CS(=O)(=O)CC32)cc1 (configuration not stated),x,x,-0.8,x,2.3,
Nn1c(SCC(=O)NCCN2C(=O)CSC2=O)nnc1-c1ccc(OC(F)F)cc1,x,x,-2.8,x,-7.9,
C=CCC(NCc1ccccc1)c1ccco1 (configuration not stated),-4.9%,6.1,-0.3,5.5,-6.9,
Cc1ccc(C(=O)Oc2ccc(/C=C3\C(=N)N4N=C(N5CCOCC5)SC4=NC3=O)cc2)cc1,x,x,4.7,x,0.4,
COc1ccc(C(=O)C2CCCN(S(=O)(=O)c3ccccc3F)C2)c(C)c1 (configuration not stated),x,x,7.7,x,2.8,
CC(=O)NCCCc1nc2ccccc2n1Cc1c(F)cccc1Cl,7.3%,x,0.8,x,4.3,
Cc1ccc(NC(=O)C2CCN(S(=O)(=O)c3ccc4c(c3)OCCCO4)CC2)nc1,x,x,5.5,x,-7.5,
N#C/C(=C\c1ccccc1)C(=O)N1CCC(C(N)=O)CC1,x,x,-2.9,x,1.9,
Cc1cccc(C(=O)NCCc2n[nH]c(=S)n2C)c1,-1.7%,3.2,0.4,-43.8,-0.4,
O=C(NCCc1cccnc1)C1CCC(=O)N(CCc2cccc(F)c2)C1 (configuration not stated),x,x,5.6,x,-1.1,
CC(CCc1ccc(O)cc1)NC(c1ccccc1)c1ccc(Cl)cc1 (configuration not stated),x,x,14.1,x,6.2,
O=C(CCc1nnc(CCCCc2ccccc2)o1)NCc1cccc(F)c1,-0.3%,0.2,x,x,-1.9,
Cn1cnc([N+](=O)[O-])c1Sc1ccccc1,3.0%,-10.4,13.1,-3.1,2.3,
Cc1cc(C(=O)Nc2ccc3ccccc3c2)c(C)o1,x,x,13.2,x,-3.2,
O=P(CN1CCN(c2ccccc2)CC1)(N1CCCCC1)N1CCCCC1,3.5%,4.4,4.9,-22.7,1.8,
COc1cccc(COC(=O)C2CCN(S(=O)(=O)c3ccc(C)cc3)CC2)c1OC,x,x,-2.6,x,60.0,
CC(NC(=O)c1ccc(-c2cc(C(F)(F)F)ccc2Cl)o1)c1ccccc1 (configuration not stated),-2.6%,1.7,x,-10.1,-5.2,
COc1ccc2c(c1)O/C(=C\c1ccccc1O)C2=O,x,x,6.4,x,-1.6,
CC(C)(C)c1cnnn1-c1ccc([N+](=O)[O-])cc1,6.9%,6.6,-1.7,x,1.7,
CCN(C(=S)NC(=O)C1CCCC1)C1CCCCC1,3.8%,5.2,0.8,x,-7.3,
COc1ccc(-c2nc(N)ncc2-c2ccccc2)c(O)c1,x,x,-0.9,x,3.9,
CCCCNC(=O)c1nn2cc(Br)cnc2c1Br,-1.2%,-5.7,0.4,x,4.5,
Cc1ccc(/C=N/N=C2/NC(=O)C(CC(=O)Nc3ccccc3)S2)o1 (configuration not stated),3.0%,-1.2,0.0,x,2.4,
Cc1nn(-c2ccccc2)c(C)c1/C=N/N1CCN(c2ccccc2)CC1,2.8%,-5.6,2.9,-31.6,38.0,
Cc1cc(C)cc(-n2cc[nH]c2=S)c1,-1.8%,0.1,-1.5,-12.6,9.9,

# Fetched by compound from the list above, 2 records:
SMILES,Mtb H37Rv,Arbovirus inh,RecA intein inh,YopH inh,Mtb bLac sens,others
Cc1cccc(C(=O)NCCc2n[nH]c(=S)n2C)c1,-1.7%,3.2,0.4,-43.8,-0.4,
COc1ccc(C(=O)C2CCCN(S(=O)(=O)c3ccccc3F)C2)c(C)c1 (configuration not stated),x,x,7.7,x,2.8,

# Next part.
SMILES,Mtb H37Rv,Arbovirus inh,RecA intein inh,YopH inh,Mtb bLac sens,others
CCOC(=O)CC1(CC(=O)OCC)NC(=O)c2c(C)sc(C(=O)OCC)c2N1,-7.6%,1.9,-0.4,-15.6,-16.2,
COC(C/C=C\[C@H](O)COCc1ccccc1)OC,-4.6%,x,-0.4,x,-2.7,
O=C(COC(=O)CCc1nc2ccccc2c(=O)[nH]1)Nc1ccc(N2CCOCC2)cc1,-4.9%,x,-2.2,x,-6.3,
CCOC(=O)CNC(=O)N1CCCC(CCC(=O)NCc2ccc(F)c(F)c2)C1 (configuration not stated),-6.0%,3.7,0.5,x,-5.9,
O=C(Nc1ccc(NC(=O)c2cccs2)cc1)c1ccco1,2.1%,-6.7,-3.6,-24.9,-1.4,
Cc1nn(Cc2ccc(Cl)cc2)c(Cl)c1/C=N/NC(=O)c1cccnc1,1.1%,4.3,4.9,-7.6,3.3,
CCC(=O)NC(c1cccc([N+](=O)[O-])c1)c1c(OC(C)=O)ccc2ccccc12 (configuration not stated),9.1%,5.6,7.3,-19.9,-20.3,
O=C(Nc1ccc(Cl)c(-c2nc3ccccc3[nH]2)c1)c1ccc2c(c1)OCO2,13.6%,-15.0,11.4,7.9,8.8,
c1ccc2c(c1)ccc1nnc(SCc3ccc4c(c3)OCCO4)n12,11.6%,-9.4,-0.1,-11.0,-3.0,
CC(=O)Nc1cccc(C(=O)OCN2C(=O)c3ccccc3C2=O)c1,x,x,-1.5,x,-0.5,
Cc1cc(OC(=O)CCCNC(=O)OC(C)(C)C)c2c3c(c(=O)oc2c1)CCC3,-8.5%,-7.7,-1.3,15.5,5.1,
COc1ccc(CCNC(=O)CNS(=O)(=O)c2ccc(F)c(Cl)c2)cc1OC,x,x,-6.0,x,-2.9,
COC(=O)CN(n1cnnc1)S(=O)(=O)c1ccccc1,-1.7%,-1.5,-0.7,-55.3,-0.9,Arbovirus inh repeat=-1.8
O=C(O)c1ccc2c(c1)N(Cc1ccc(F)cc1)C(=O)c1ccccc1S2,0.0%,0.2,0.9,x,1.4,
Cc1c(-c2ccccc2)sc(N)c1C(=O)N1CCOCC1,2.6%,4.4,-18.5,-27.2,-8.1,
CCOC(=O)N1CCN(C(=O)CN2C(=O)NC(c3ccccc3)(c3ccccc3)C2=O)CC1,x,x,0.7,x,-2.7,
Cc1ccc2oc(C(=O)Nc3ccc(S(=O)(=O)Nc4onc(C)c4C)cc3)c(C)c2c1,x,x,-3.2,x,2.2,
CCOC(=O)CSc1n[nH]c(NS(=O)(=O)c2ccccc2C(F)(F)F)n1,-4.0%,3.7,0.4,x,9.1,
Fc1ccc(-c2ccc(Nc3cccc(F)c3)nn2)cc1,1.0%,-13.3,-0.6,x,-1.9,
Cn1nc(-c2ccc(OCC(N)=O)cc2)c2ccccc2c1=O,9.4%,-10.2,1.0,-13.1,-12.7,
COCCN(CCNC(=O)c1ccc(NC2=NC3CS(=O)(=O)CC3S2)cc1)Cc1ccco1 (configuration not stated),x,x,-5.9,x,-5.2,
CCN(CC)S(=O)(=O)c1ccc2oc(C(=O)NC3CC3)c(C)c2c1,x,x,-3.0,x,-2.9,
N#C/C(=C\c1ccc(F)cc1)c1nc(-c2ccco2)cs1,7.8%,-10.1,-2.7,-25.1,-7.6,
CCCCn1nnnc1NCc1cc(OC)c(OC)cc1OC,-7.4%,15.5,-1.0,-39.3,0.3,
CCn1ncc(/C=N/NS(=O)(=O)c2ccc(Cl)cc2)c1C,2.6%,2.6,x,-4.5,-5.5,
COc1cccc(OCc2nc3ccccc3c(=O)n2N)c1,17.9%,3.2,-23.9,-0.5,6.3,
CCOC(=O)N1CCC(NC(=O)c2ccc(CO)c(C(=O)NC3CCN(C(=O)OCC)CC3)c2)CC1,-7.5%,15.3,1.2,x,1.4,

# Compounds from the list above that have a Cl atom:
SMILES,Mtb H37Rv,Arbovirus inh,RecA intein inh,YopH inh,Mtb bLac sens,others
CN(C)C(CNC(=O)CCc1nc2cc(Cl)ccc2n(Cc2ccccc2)c1=O)c1ccccc1 (configuration not stated),x,x,3.2,x,1.5,
CC(=O)Nc1ccc(Oc2cncc(Cl)c2)nc1,3.3%,x,-1.2,x,-2.9,
COc1ccc(Cl)cc1NS(=O)(=O)c1c(C)nc2sccn2c1=O,x,x,-2.1,x,-1.9,
OCCOCCn1c(C2CCCN2c2nc(-c3ccc(F)cc3)cs2)nc2cc(Cl)c(Cl)cc21 (configuration not stated),10.0%,x,8.2,x,79.7,
Cn1c(NC(=O)c2ccc(Cl)s2)cc(=O)n(C)c1=O,-1.6%,-3.8,1.1,-3.3,-1.9,
CC(=O)NCCCc1nc2ccccc2n1Cc1c(F)cccc1Cl,7.3%,x,0.8,x,4.3,
CC(CCc1ccc(O)cc1)NC(c1ccccc1)c1ccc(Cl)cc1 (configuration not stated),x,x,14.1,x,6.2,
CC(NC(=O)c1ccc(-c2cc(C(F)(F)F)ccc2Cl)o1)c1ccccc1 (configuration not stated),-2.6%,1.7,x,-10.1,-5.2,
Cc1nn(Cc2ccc(Cl)cc2)c(Cl)c1/C=N/NC(=O)c1cccnc1,1.1%,4.3,4.9,-7.6,3.3,
O=C(Nc1ccc(Cl)c(-c2nc3ccccc3[nH]2)c1)c1ccc2c(c1)OCO2,13.6%,-15.0,11.4,7.9,8.8,
COc1ccc(CCNC(=O)CNS(=O)(=O)c2ccc(F)c(Cl)c2)cc1OC,x,x,-6.0,x,-2.9,
CCn1ncc(/C=N/NS(=O)(=O)c2ccc(Cl)cc2)c1C,2.6%,2.6,x,-4.5,-5.5,

# Bioassay records deposited in PubChem BioAssay by several laboratories.
